Assay outcomes as filed in PubChem BioAssay.
FGF22 binding = FGF22 (human) thermal shift binding | recombinant FGF22 thermal shift, SYPRO orange fluorescence; percent of sucrose octasulfate shift, DMSO zero | AID 651658 | hit rate 1.5% among 340,000 | calls only at 9.99 µM;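 active = melting point raised past a set limit in the mean and every replicate; inconclusive = no clear call; three in four hits are not shown here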
LANA-H2A inh = blocks KSHV LANA binding to histone H2A/H2B | inhibition, % (concentration not given with the values) | cell-free LANA-H2A/H2B peptide, fluorescence polarization | Q9QR71 | hit rate 0.6% among 320,000; in the data active = inhibition mostly above about 10%, no sharp cut-off; inactive = mostly below about 6.7%;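 note: stock transfer was 7.5 nL into about 10 µL; 0% = median of vehicle wells and 100% = median of positive control wells; one replicate is shown; the record names a cut of 25% in any replicate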
Beta2AR agonist = agonists of human beta-2 adrenergic receptor inducing internalization. P07550. Am2.2-beta2AR cells, FAP receptor internalization, flow cytometry; reference of the scale not given here. response, % (test concentration not listed). hit rate 0.43% among 340,000. AID 504454;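 active = response above a set limit, near 3 SD of response in nonfluorescent compounds, cut at about 42% in these data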;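 note: stock transfer was 100 nL into about 11 µL; a reference agonist was the positive control; negative values mostly stem from fluorescent compounds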
Target sequence (P07550 whole entry, looked up): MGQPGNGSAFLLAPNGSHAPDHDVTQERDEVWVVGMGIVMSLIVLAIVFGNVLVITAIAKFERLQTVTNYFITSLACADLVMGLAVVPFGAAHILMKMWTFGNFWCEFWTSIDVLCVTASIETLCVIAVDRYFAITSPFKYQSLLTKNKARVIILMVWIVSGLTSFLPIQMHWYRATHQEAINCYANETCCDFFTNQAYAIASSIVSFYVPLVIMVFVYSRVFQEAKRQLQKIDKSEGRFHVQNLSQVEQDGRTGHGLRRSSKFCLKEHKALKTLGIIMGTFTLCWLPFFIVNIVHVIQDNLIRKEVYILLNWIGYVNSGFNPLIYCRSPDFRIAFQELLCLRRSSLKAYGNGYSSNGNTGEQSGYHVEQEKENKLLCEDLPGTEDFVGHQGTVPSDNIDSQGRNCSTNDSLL
UCH37 inh = blocks the human deubiquitinase UCH37; Q9Y5K5; purified proteasome/UCH37, Ub-AMC cleavage fluorescence; inhibition, % (concentration not given with the values); hit rate 0.33% among 330,000; AID 588478;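 active = mean of two replicates above 20%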;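 note: 0% = compound-free wells with enzyme and 100% = wells lacking proteasome; stock transfer was 100 nL into about 20 µL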
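Test system – human UCH37 enzyme supplied as purified proteasome complex · Incubation – 30 min preincubation with enzyme, 25 min cleavage at room temperature · Detection – AMC fluorescence from Ub-AMC cleavage, excitation 355 nm, emission 460 nm · Benchmarks – no-proteasome wells (full inhibition) and compound-free wells (no inhibition)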
ALR inh = inhibitors of human sulfhydryl oxidase ALR; hit rate 3.8% among 290,000; purified ALR, DTT oxidation, H2O2 HRP-luminol luminescence; inhibition, % (concentration not given with the values); P55789;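 active = mean and each replicate at 75% or more; inconclusive = only one of the two met; inactive = neither met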;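 note: stock transfer was 7.5 nL into about 7.5 µL; 0% = neutral wells and 100% = wells with inactivated enzyme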
Target sequence (P55789 whole entry, looked up): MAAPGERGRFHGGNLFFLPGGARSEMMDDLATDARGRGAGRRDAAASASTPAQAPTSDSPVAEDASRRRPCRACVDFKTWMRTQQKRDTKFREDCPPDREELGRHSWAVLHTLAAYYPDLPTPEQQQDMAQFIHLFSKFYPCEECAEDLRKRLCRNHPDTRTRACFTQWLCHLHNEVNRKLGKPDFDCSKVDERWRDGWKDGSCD
Ecoli growth = inhibitors of Escherichia coli growth | OD600, 23 h; active compounds read low | OD600 absorbance (test concentration not listed) | hit rate 0.21% among 330,000 | AID 1053175;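 active = OD600 absorbance below the run mean of sample wells minus 3.6 SD, in any replicate, cut at about 0.56 in these data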;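 note: stock transfer was 300 nL into about 60 µL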
HNF4A DNA FP = change in binding of human HNF4 alpha to DNA | activity change, % at 10 µM | HNF4a-FITC DNA binding, fluorescence polarization, 1 h | hit rate 0.3% among 360,000; in the data active = activity change above about 30%, passing the limit was not always enough;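 note: controls were the assay level and a saturating level of protein; the project sought stronger binding though the title names inhibitors; some compounds called inactive have numbers as strong as hits; positive values seem to mean higher polarization but the record does not say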
Target sequence (P41235 whole entry, looked up): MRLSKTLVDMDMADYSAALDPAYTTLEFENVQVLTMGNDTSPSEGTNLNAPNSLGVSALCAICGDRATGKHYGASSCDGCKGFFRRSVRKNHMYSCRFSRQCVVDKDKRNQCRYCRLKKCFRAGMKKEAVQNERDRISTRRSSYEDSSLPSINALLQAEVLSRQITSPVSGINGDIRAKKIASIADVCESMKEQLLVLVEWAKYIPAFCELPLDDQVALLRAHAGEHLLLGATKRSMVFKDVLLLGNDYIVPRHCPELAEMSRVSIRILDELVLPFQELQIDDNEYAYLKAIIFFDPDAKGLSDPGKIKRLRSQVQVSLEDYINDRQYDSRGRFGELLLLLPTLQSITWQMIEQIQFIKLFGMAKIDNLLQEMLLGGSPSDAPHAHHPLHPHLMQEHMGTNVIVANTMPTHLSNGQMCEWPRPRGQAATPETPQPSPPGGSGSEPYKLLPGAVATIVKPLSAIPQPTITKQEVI
Numbers without * were called inactive; i = inactive; ? = inconclusive; · = no result given. These rows are one share of the data; count on the stated rates, not on these rows.

SMILES	FGF22 binding	LANA-H2A inh	Beta2AR agonist	UCH37 inh	ALR inh	Ecoli growth	HNF4A DNA FP
COCOC1CCC2C3CCC4=CC(=O)CCC4=C3C=CC12C (stereo not given)	i	·	8	·	·	·	-5.0
Cc1ccc(N2C(=O)NC(=O)/C(=C\C=C\c3ccco3)C2=O)cc1C	i	4.7	60*	4.5	96*	0.69	1.2
Cc1ccsc1C(=O)C1CCCN(Cc2cnc(N)nc2)C1 (stereo not given)	i	-0.8	-12	0.2	-6	0.68	5.1
Cc1nn(Cc2ccccc2Cl)c(Cl)c1C(=O)O	i	-2.7	4	1.4	-4	0.7	-2.8
O=C(c1cc(F)ccc1F)C1CCCN(CCCc2ccccc2)C1 (stereo not given)	·	-0.9	0	1.1	0	0.66	-1.6
Nc1ccc(S(=O)(=O)N2CCCCC2c2cccnc2)cc1 (stereo not given)	i	3.6	11	7.1	90*	0.72	3.3
Cc1cc(C)cc(NC2=NCCCS2)c1	i	-3.1	0	6.4	-1	0.66	2.8
CCCN1CCC2(CC1)NC(CO)(CO)CO2	·	4.7	5	1.4	-3	0.68	0.5
CC(=C1C(=O)c2ccccc2C1=O)N1CCN(CCN=Cc2c(O)n(C)c(=O)n(C)c2=O)CC1	·	-0.1	-1	5.4	-7	0.7	2.1
CC(=O)Nc1ccc(OC(=O)N(C)C)cc1	·	1.2	-1	-1.2	-6	0.61	0.1
O=C1CC(c2ccccc2)CC(O)=C1C=NCCN1CCN(C(=O)Cc2ccccc2)CC1 (stereo not given)	·	4.3	-8	-0.4	11	0.71	-4.9
COc1ccc2cc(C(=O)C3CCCN(C4CCOCC4)C3)ccc2c1 (stereo not given)	i	-3.0	-4	-500	-8	0.71	2.4
Cn1c2ccccc2c2cnn(CC(=O)N3CCC4(CC3)OCCO4)c(=O)c21	·	0.7	·	-13	·	0.71	·
Cc1cc(/C=C2\C(=O)NC(=O)N(Cc3ccccc3)C2=O)c(C)n1C1CC1	i	-5.1	10	6.6	12	0.72	-0.6
Cn1cc(CCC(=O)N2CCC3(CC2)OCCO3)c2ccccc21	·	-4.6	11	-0.4	10	0.72	-1.2

Molecules listed so far with sulfur, in the order listed:
SMILES	FGF22 binding	LANA-H2A inh	Beta2AR agonist	UCH37 inh	ALR inh	Ecoli growth	HNF4A DNA FP
Cc1ccsc1C(=O)C1CCCN(Cc2cnc(N)nc2)C1 (stereo not given)	i	-0.8	-12	0.2	-6	0.68	5.1
Nc1ccc(S(=O)(=O)N2CCCCC2c2cccnc2)cc1 (stereo not given)	i	3.6	11	7.1	90*	0.72	3.3
Cc1cc(C)cc(NC2=NCCCS2)c1	i	-3.1	0	6.4	-1	0.66	2.8

Record cards, from the list above. Order of screens: FGF22 binding	LANA-H2A inh	Beta2AR agonist	UCH37 inh	ALR inh	Ecoli growth	HNF4A DNA FP
COc1ccc2cc(C(=O)C3CCCN(C4CCOCC4)C3)ccc2c1 (stereo not given) is listed with i	-3.0	-4	-500	-8	0.71	2.4
Cc1cc(/C=C2\C(=O)NC(=O)N(Cc3ccccc3)C2=O)c(C)n1C1CC1 is listed with i	-5.1	10	6.6	12	0.72	-0.6
Nc1ccc(S(=O)(=O)N2CCCCC2c2cccnc2)cc1 (stereo not given) is listed with i	3.6	11	7.1	90*	0.72	3.3

Additional compounds
SMILES	FGF22 binding	LANA-H2A inh	Beta2AR agonist	UCH37 inh	ALR inh	Ecoli growth	HNF4A DNA FP
COc1cccc(O)c1CN1CCCC(C(=O)c2ccccc2SC)C1 (stereo not given)	i	-2.9	-2	4.4	19	0.67	3.8
NCCCP(=O)(O)CCc1ccccc1	i	-14	-10	-1.4	-20	0.75	-1.2
CCCCCCn1c(O)c(C=Nc2ccccc2N2CCOCC2)c(=O)[nH]c1=S	i	8.2	-23	-8.7	-9	0.73	74*
CCOC(=O)c1nc2ccccc2c(=O)n1-c1cccc(C)c1	·	4.8	-2	3.3	4	0.78	-2.6
COc1ccc(CN(CCc2c[nH]c3ccccc23)Cc2ccc(OC)cc2)cc1	i	·	2	·	·	·	3.4
OCc1cnc[nH]1	i	6.2	-8	5.9	·	0.65	3.7
COC(=O)C1=C(c2c(C)noc2C)C[C@@H]2CC[C@H]1N2C(=O)NCCOc1ccccc1	i	1.5	-2	0.4	6	0.75	1.4
Clc1cccc(C2NCc3ccccc3-n3cccc32)c1 (stereo not given)	i	-0.2	-2	3.9	-9	0.67	0.1
COc1ccc(CCNCc2ccncc2)cc1OC	i	2.0	2	1.3	-5	0.71	-2.3
Oc1ccc(Br)cc1CN1CCN(c2ccccc2)CC1	·	-1.4	2	3.1	-4	0.74	0.7
NC(=O)c1ccc(N)nc1	i	·	3	·	·	·	-2.7
CCOC(=O)c1c(-c2ccccc2)oc2ccc(OC(=O)N(C)C)cc12	·	0.0	12	-111	-10	0.67	1.6
CC(C)n1c(O)c(C=NCc2cccnc2)c(=O)[nH]c1=S	i	-1.2	-15	15	22	0.62	0.1
CN(C)c1ccc(C=C2C(=O)NC(=S)NC2=O)cc1	i	·	19	-0.1	·	0.68	0.7
C/C(=N\N1CCN(C)CC1)c1c(O)n(Cc2ccccc2)c(=O)[nH]c1=O	·	-23	-6	-0.1	-3	0.69	-1.7
C[C@@H]1NCCc2cc(O)c(O)cc21	i	2.2	-4	2.1	?	·	3.6
S=P(N1CCOCC1)(N1CC1)N1CC1	i	·	-9	1.4	·	0.64	8.7
COC(=O)C1=C(c2ccc3ccccc3c2)C[C@@H]2CC[C@H]1N2C(=O)NCc1ccc(F)cc1	i	-1.1	1	1.9	-9	·	3.4
COc1ccc(-n2c(-c3ccc(C)cc3)nc3ccccc3c2=O)cc1	i	3.6	-12	0.5	-4	0.71	0.1
Cc1nc(CCl)cc(=O)[nH]1	i	-2.5	-1	0.8	-3	0.65	5.2
CCN(CC)C(=O)c1ccc(NC(=O)CCCSc2ccccc2)cc1	i	0.4	-4	4.4	-85	0.69	-0.5
CNC(=S)N1CC2CC(C1)c1cccc(=O)n1C2 (stereo not given)	i	1.5	2	2.1	-16	0.72	0.5
Cc1c(C(c2ccc(F)cc2)c2c(O)c3ccccc3oc2=O)c(=O)n(-c2ccccc2)n1C (stereo not given)	·	2.0	4	4.9	-7	0.67	8.3
O=C(O)Cn1cc(C=C2C(=O)NC(=O)NC2=O)c2ccccc21	i	6.2	6	4.9	49	0.63	1.2
Cc1nnc2ccc(N3CCN(C)CC3)nn12	·	·	-4	2.5	·	0.74	-4.2
CC(=O)O[C@@]12CO[C@@H]1C[C@H](O)[C@@]1(C)C(=O)[C@H](O)C3=C(C)[C@@H](OC(=O)[C@H](O)[C@@H](NC(=O)c4ccccc4)c4ccccc4)C[C@@](O)([C@@H](OC(=O)c4ccccc4)C12)C3(C)C (stereo not given in full)	i	0.4	-8	2.5	-11	0.71	4.4
Cc1cc(C)nc(NS(=O)(=O)c2ccc(N=Cc3c(O)n(C)c(=O)n(C)c3=O)cc2)n1	·	4.4	0	16	-2	0.66	4.0
CNCCc1ccc(OC)c(OC)c1	i	0.5	0	2.4	-7	0.77	-1.8
CC(=O)N1N=C(c2cccnc2)OC1c1ccccc1Cl (stereo not given)	i	-1.5	-5	0.2	7	0.67	0.5
O=c1c2ccccc2nc(/C=C/c2ccc(F)cc2)n1-c1ccccc1O	i	-1.4	-4	-3.2	-16	0.66	7.8
CC(C)CCC1(CCO)C(=O)NC(=S)NC1=O	i	·	-2	3.0	·	0.65	0.2
COc1cc2c(cc1OC)C(c1c(O)n(CCc3ccccc3)c(=S)[nH]c1=O)NCC2 (stereo not given)	·	-0.9	·	-60	4	0.62	·
COC(=O)C1=C(c2cccc(OC)c2OC)C[C@@H]2CC[C@H]1N2C	i	5.9	-4	5.6	-14	·	-0.6
CCN(CC)c1ccc(/C=N/c2sc3c(c2C#N)C2CCN3CC2)c(O)c1	·	-3.2	-401	·	73	·	120
Cc1ccc(N)cc1C	i	·	-2	4.0	·	0.68	-0.4
CCCN(CCC)C1Cc2cc(OC)c(OC)cc2C1	i	-3.5	6	0.7	-10	0.68	-2.8
O=C(N1CCCCCC1)N1CC1	i	·	7	-0.6	·	0.61	2.3
O=c1[nH]c(=S)[nH]c(O)c1N=Nc1ccc(OC(F)F)cc1	i	3.9	12	15	2	0.63	12
CC(C)CC1C(C#N)=C(N)Oc2c1c(=O)oc1ccccc21 (stereo not given)	i	-2.1	5	4.1	51	0.75	1.9
CCC(=NCc1ccc2c(c1)OCO2)c1c(O)n(C)c(=O)n(C)c1=O	·	-3.1	8	4.1	·	0.7	-1.2
c1cc2c(cc1[C@H]1OC[C@H]3[C@@H]1CO[C@@H]3c1ccc3c(c1)OCO3)OCO2	i	-3.4	-4	0.9	3	·	-5.0
CCCCn1c(O)c(C=NC2CC3CCC2(C)C3(C)C)c(=O)[nH]c1=O (stereo not given)	·	-0.4	0	-0.1	-33	0.7	-1.0
CCCCCn1c(=O)c(C(=O)Nc2cc(C)ccn2)c(O)c2ccccc21	i	-3.5	1	1.0	·	0.7	0.1
CCC(=NCCN1CCOCC1)c1c(O)n(C2CCCCC2)c(=O)[nH]c1=O	i	-6.4	-5	2.1	·	0.66	-2.7
Cc1ccc(N2C(=O)NC(=O)/C(=C\c3cn(CC(=O)O)c4ccccc34)C2=O)cc1	i	2.0	5	4.6	4	0.74	0.1
CC(=O)[C@@]1(O)CCC2C3CC=C4C[C@@H](O)CC[C@]4(C)C3CC[C@@]21C (stereo not given in full)	i	0.9	4	2.6	-4	0.68	-1.0
COC(=O)C1=C(c2ccc(OC(F)(F)F)cc2)C[C@@H]2CC[C@H]1N2C(=O)N1CCCCC1	i	0.1	-6	1.4	2	·	-2.0
Cc1c(C(=O)Nc2ccccc2)c2cc(O)ccc2n1Cc1ccccc1	i	-5.6	-9	5.4	-7	0.66	-0.9
COc1ccc(-c2nn(CCC#N)cc2C(=O)Nc2ccccc2Cl)cc1	i	1.2	-7	2.8	-9	0.74	-0.8
CC1CCCCC12C(=O)NC(=O)NC2=O (stereo not given)	i	·	3	·	·	·	1.7
COC(=O)C1=C(c2ccc(S(C)(=O)=O)cc2)C[C@@H]2CC[C@H]1N2C(=O)NCc1cccc2ccccc12	i	-0.4	-6	3.5	-8	·	-0.4
COC(=O)C1=C(c2cccc(OC)c2OC)C[C@@H]2CC[C@H]1N2C(=O)NCc1cccc2ccccc12	i	3.5	-2	2.2	-5	0.79	-3.7
COC(=O)C1=C(c2cccc(C#N)c2)C[C@@H]2CC[C@H]1N2C(=O)NCc1cc(C)oc1C(F)(F)F	i	0.8	3	2.7	-8	·	0.4
CCN1CCN(C(=O)COc2ccc3c(c2)C(=O)CC2(CCN(C(C)=O)CC2)O3)CC1	·	1.0	5	i	-15	0.68	0.3
Cc1cc(C)c(NC2=NCCCS2)c(C)c1	·	3.6	27	0.3	-5	0.67	1.3
NC1=NC(=O)N2CC12 (stereo not given)	i	·	3	·	·	·	-1.0
COC(=O)c1ccc(-n2c(C)nc3ccccc3c2=O)cc1	·	0.6	4	3.4	-2	0.79	-0.4
O=C1NC(=O)N(c2ccc3c(c2)OCO3)C(=O)/C1=C/c1ccsc1	i	4.0	15	-2.0	-7	0.66	-1.3
Cc1cc([P+](=O)O)c(C)n1-c1ccc(Br)cc1	i	5.3	5	2.9	·	0.64	12
COC(=O)C(O)(c1ccc(N(C)S(=O)(=O)c2ccccc2)cc1)C(F)(F)F (stereo not given)	·	0.8	-14	3.2	-1	0.75	-0.4
COP(=O)(NC(=O)C(Cl)(Cl)Cl)OC	i	-1.8	3	0.1	-23	0.68	1.6
C[C@]12CC[C@H](O)CC1=CC(=O)C1C2CC[C@]2(C)C(=O)CCC12 (stereo not given in full)	i	0.9	3	4.4	-21	0.7	3.1
CN1CCN(c2c(C#N)c(C(F)(F)F)nn2C)CC1	i	-1.6	1	1.3	-15	0.67	-3.3
